Sfp_inh = blocks B. subtilis Sfp PPTase activity | Q9F4F7 | Biochemical Sfp PPTase activity, qHTS | Potency, µM, for inactives: max response, negative = inhibition, usual class: inhibitors | 3.5% of 310,000 active | AID 1490; active = well fitted inhibition curve with a large enough effect;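 note: the enzyme is Sfp with the accession as filed and its product quenches rhodamine fluorescence; potency is the fitted concentration of half-maximal effect; 0% = enzyme reaction without inhibitor and -100% = no enzyme wells; top concentration of the series not given in the record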
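Reaction rates are the 30-min fluorescence difference (ex 525, em 598 nm) in wells containing 15 nM Sfp, 5 uM rhodamine-CoA and 12.5 uM BHQ-2-YbbR at pH 7.6 with 10 mM MgCl2.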
Menin_MLL_FP_FL = displaces fluorescein MLL peptide from human menin | Fluorescence polarization, fluorescein-MLL peptide displacement from menin | FP activity change, % at 61.4 µM | 290,000 tested, under 10 active | AID 1766; inconclusive = falling polarisation curve, or a change in total fluorescence; inactive = total fluorescence flat and polarisation flat or rising; no compound was filed as active; the % refers to the polarisation; negative = inhibition;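 note: % of control where 0% means no effect; inhibitors lower the polarisation; unlabelled MLL peptide was the positive control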
TRPV1_potentiator = human TRPV1 potentiation; potentiation, % at 8.33 µM; 0.02% of 320,000 active; TRPV1-expressing cells, Fluo-8 calcium influx, capsaicin EC20 potentiation; host cell line not named in the record; control for the full effect not named in the record; Q8NER1; AID 540277; active means potentiation above 80%; inconclusive means 30% to 80%; inactive means below 30%; note: 0% is about no effect
Target sequence (Q8NER1 whole entry, looked up): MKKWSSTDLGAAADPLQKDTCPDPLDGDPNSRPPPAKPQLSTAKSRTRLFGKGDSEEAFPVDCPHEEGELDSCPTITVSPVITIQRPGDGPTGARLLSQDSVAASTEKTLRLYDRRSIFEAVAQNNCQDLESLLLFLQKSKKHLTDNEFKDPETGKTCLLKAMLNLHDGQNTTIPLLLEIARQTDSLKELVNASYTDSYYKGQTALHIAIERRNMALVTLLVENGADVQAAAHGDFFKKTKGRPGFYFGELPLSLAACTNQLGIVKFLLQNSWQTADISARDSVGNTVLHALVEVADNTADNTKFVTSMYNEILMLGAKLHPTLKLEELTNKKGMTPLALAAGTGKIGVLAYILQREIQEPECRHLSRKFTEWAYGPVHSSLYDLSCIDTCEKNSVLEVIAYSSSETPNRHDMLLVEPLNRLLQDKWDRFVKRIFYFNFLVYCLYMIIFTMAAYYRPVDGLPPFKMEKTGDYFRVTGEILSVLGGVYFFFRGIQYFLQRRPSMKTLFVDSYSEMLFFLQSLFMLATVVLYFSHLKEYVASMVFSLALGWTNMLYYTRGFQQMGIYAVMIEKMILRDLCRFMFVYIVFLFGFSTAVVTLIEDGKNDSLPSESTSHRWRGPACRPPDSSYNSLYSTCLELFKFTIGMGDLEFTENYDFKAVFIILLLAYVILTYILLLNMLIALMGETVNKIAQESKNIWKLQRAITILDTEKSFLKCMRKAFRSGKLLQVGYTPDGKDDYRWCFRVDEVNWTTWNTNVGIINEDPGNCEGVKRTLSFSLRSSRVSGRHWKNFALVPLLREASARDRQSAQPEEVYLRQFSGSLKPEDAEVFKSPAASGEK
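Cells expressing TRPV1 were dye-loaded with Fluo-8 and read kinetically: 10 s baseline, 3 min after compound (agonist portion), then 2 min after EC20 capsaicin (allosteric enhancer portion). Calcium-bound dye fluorescence at 480/520 nm.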
ClpP_mod = qHTS Assay for Activators of ClpP; ATP-dependent Clp protease proteolytic subunit (Bacillus subtilis (strain 168)), P80244; purified B. subtilis ClpP, FRET peptide cleavage, 20 min; Potency, µM (titrated, usually from 57.5 µM), for inactives: top-dose activity change, negative = active; 1.9% of 340,000 active; AID 651965, 2013; active = well fitted falling curve with a large enough effect; inconclusive = small, poorly fitted or top-dose-only effect; inactive = no such curve, though single readings can be large or run the other way; note: potency is the fitted concentration of half-maximal effect; the source files actives as falling curves though it sought activators and does not explain the sign; nearly all actives have a fitted effect of over 65% in size; many hits overshoot -100%
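Buffer: 100 mM Tris/HCl pH8, 100 mM KCl, 0.05% low protease BSA, 2.5% glycerol, 0.01% Tween-20. ClpP 10 microg/mL final; 20 min RT; delta FRET normalized to ADEP and DMSO controls.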
gsp_antagonist = gsp mutant antagonism; gsp-mutant cells, cAMP HTRF, 30 min; control for the full effect not named in the record; AID 624288; Potency, µM (top dose mostly 76.9 µM), for the others: at the highest dose activity change, negative = inhibition, actives largely listed as inhibitors; 0.4% of 340,000 active; active = falling curve of any shape with a large fitted effect; inconclusive = falling curve, mostly with a smaller effect; inactive = flat or rising curve; cell line not stated here;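 note: intracellular cAMP measured with PDE inhibitor Ro 20-1724 present during compound exposure; potency is the fitted concentration of half-maximal effect; % is set by controls: 0 for no effect and ±100 for the full control effect; nearly all actives have a fitted effect of over 65% in size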
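G418-selected cells were plated in DMEM/10% FBS for 16-24 h at 37C, then treated with compounds plus the PDE inhibitor […] (300 uM solution added) for 30 min at 37C. Intracellular cAMP was measured by HTRF after 30 min lysis at room temperature.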
TRPML1_blocker = human mucolipin-1 channel inhibition; activity change, negative = inhibition, % (no concentration beside the values); AID 624415; TRPML1-inducible cells, Ca2+ dye fluorescence, FDSS; stronger effect = lower value; inhibition of EC80 agonist-evoked calcium signal; 0.02% of 390,000 active; in the data active means activity change below about -50%; inconclusive means about -30% to -50%; inactive means above about -30%;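 note: stimulus is agonist 54-4 at its EC80 concentration; % is set by controls: 0 for no effect and ±100 for the full control effect; compound concentration not given in the record; the text of the record puts the active cut at -80%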
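Calcium fluorescence in TRPML1-DL cells induced overnight with Tet: a 110 s read after compound pin addition, then a 110 s antagonist read after challenge with 54-4 at 4 uM final (EC80).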
The depositor's hits bear a star; & = joins results of further samples. Some of the compounds tested (hit frequency here may not be typical).

SMILES Sfp_inh Menin_MLL_FP_FL TRPV1_potentiator ClpP_mod gsp_antagonist TRPML1_blocker
O=C(CCN1CCN(CCO)CC1)N1c2ccccc2Sc2ccc(C(F)(F)F)cc21 -4.0%&-18.3% -4.3&-4.0 6.9 0.6% 1.7% 2.3
